Bioassay records deposited in PubChem by National Center for Advancing Translational Sciences (NCATS).
Rango dissoc inh – inhibitors of RanGTP-induced Rango-importin beta complex dissociation. Potency, µM (doses to about 46.1 µM), for the others: at the top dose activity change, negative = inhibition. 0.071% of 340,000 active. AID 540253. O95149+P62826. Biochemical FRET Rango-importin beta, RanGTP-induced dissociation; active means falling FRET ratio curve, often poorly fitted, with flat reads before Ran was added; inconclusive means other falling curves, or compound fluorescence or quenching; inactive means flat or rising ratio curve;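 further: potency means the concentration at half of the fitted maximal effect; % of control where 0% means no effect; nearly all actives have a fitted effect of over 45% in size; -100% = wells without RanGTP and RCC1; the record marks most hits as doubtful in a second field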
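Rango FRET biosensor (snurportin-1 IBB flanked by N-terminal EYFP and C-terminal CFP10) at 0.1 uM, with 0.25 uM importin beta in PBS, 1mM DTT, 0.02% Tween-20, 0.1% BSA. 0.6 uM Ran, 2mM GTP and 0.2 uM RCC1 were then added for 45 min at room temperature. Inhibition read as loss of FRET rise.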
Rango complex inh – inhibitors of Rango-importin beta complex formation; Q14974; Rango CFP/YFP FRET sensor + importin beta, 45 min; Potency, µM (titrated, usually from 92.2 µM), for inactives: top-dose inhibition of complex formation; 0.031% of 340,000 active; AID 540263; active = rising FRET ratio curve, often small or poorly fitted; inconclusive = mostly compound fluorescence or quenching in the first reads; inactive = flat curves in all reads;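 further: potency means the concentration at half of the fitted maximal effect; 0% = DMSO wells and 100% = buffer wells lacking importin beta; nearly all actives have a fitted effect of over 15% in size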
Target sequence (Q14974 whole entry, looked up): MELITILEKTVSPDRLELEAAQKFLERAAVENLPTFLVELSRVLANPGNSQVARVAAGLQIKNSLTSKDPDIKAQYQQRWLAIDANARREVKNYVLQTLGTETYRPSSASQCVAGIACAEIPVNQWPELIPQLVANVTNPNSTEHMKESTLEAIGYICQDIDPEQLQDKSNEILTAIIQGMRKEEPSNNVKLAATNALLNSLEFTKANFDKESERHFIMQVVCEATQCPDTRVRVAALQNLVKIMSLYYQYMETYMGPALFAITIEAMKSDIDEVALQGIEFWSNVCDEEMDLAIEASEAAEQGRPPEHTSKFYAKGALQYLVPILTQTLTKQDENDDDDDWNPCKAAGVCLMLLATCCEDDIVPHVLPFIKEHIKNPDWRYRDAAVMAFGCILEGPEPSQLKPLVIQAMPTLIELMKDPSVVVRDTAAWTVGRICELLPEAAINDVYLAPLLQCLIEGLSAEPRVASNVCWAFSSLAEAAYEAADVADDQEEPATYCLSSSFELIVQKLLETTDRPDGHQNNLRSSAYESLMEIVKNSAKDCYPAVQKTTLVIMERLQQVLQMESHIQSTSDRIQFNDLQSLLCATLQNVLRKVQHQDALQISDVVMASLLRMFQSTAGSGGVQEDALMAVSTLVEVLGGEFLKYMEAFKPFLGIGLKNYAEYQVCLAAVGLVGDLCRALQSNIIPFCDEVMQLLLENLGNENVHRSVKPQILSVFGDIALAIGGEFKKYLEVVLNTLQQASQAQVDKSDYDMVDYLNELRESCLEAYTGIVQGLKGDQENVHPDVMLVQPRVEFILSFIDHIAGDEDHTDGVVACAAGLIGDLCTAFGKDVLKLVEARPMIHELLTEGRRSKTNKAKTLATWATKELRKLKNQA
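FRET biosensor Rango (snurportin 1 IBB between N-terminal EYFP and C-terminal Cerulean), 50 nM in PBS/1 mM DTT/0.02% Tween-20/0.1% BSA, preincubated 5 min RT with compound; 0.125 microM importin beta added, 45 min RT, CFP/YFP FRET ratio read.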
GLA inh pH 4.5 – inhibitors of human alpha-galactosidase A at pH 4.5 | P06280 | purified enzyme, 4-MU-alpha-Gal fluorescence, pH 4.5 | activity change, negative = inhibition, % at 105 µM | 230,000 tested, under 10 active | AID 1467; inconclusive = small, poorly fitted or top-dose-only inhibition, or a rising curve; inactive = flat fitted curve, though single readings scatter; no compound was filed as active;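 further: 0% = full activity with enzyme and -100% = basal without enzyme; dose as in the result columns while the protocol names 77 µM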
miR-21 FLuc – raises the signal of a miR-21 reporter; HeLa miR-21 FLuc reporter, luciferase, 48 h; Potency, µM (titrated, usually from 38.3 µM), for inactives: at the highest dose reporter change, positive = more light; 340,000 tested, under 10 active; AID 2288; active = well fitted rising curve with a large enough effect; inconclusive = small, poorly fitted or top-dose-only effect; inactive = no such curve, though single readings can be large or run the other way;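 further: % of control where 0% means no effect; miR-21 action dims this reporter so a rising signal means less miR-21 action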
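HeLa miR-21-FLuc reporter line, endogenous miR-21; 2000 cells/well in DMEM/10% FBS; compound titration up to ~40uM final, 48 h, 37 degree Celsius; luciferase detection reagent, 15 min lysis, CCD luminescence.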
* hit, by the source's call; ? = inconclusive; nt = not tested or not shown; & = joins results of further samples.

SMILES | Rango dissoc inh | Rango complex inh | GLA inh pH 4.5 | miR-21 FLuc
CC1(C)CC2CC(C)(CN2/C=N/c2sc3c(c2C#N)CC(C)(C)NC3(C)C)C1 (centres undefined) | 11% | 0.2% | -9 | 1%
CN(C)c1ccc(C(=O)N2CC(=O)N(CCc3ccccc3)C(=O)C2)cc1 | -3% | 0.7% | 2 | -5%
COc1ccccc1OCCCOc1c(Cl)cc(C)cc1Cl | 6% | -0.1% | 11 | -24%
CCC(c1nnnn1Cc1ccco1)N(Cc1ccccc1OC)Cc1cc2cc(C)ccc2[nH]c1=O (centres undefined) | -12% | -1.6% | -2 | 0%
Clc1cccc(-c2nnc3n2CCCCC3)c1 | -10% | ? | -10 | -2%
CC(C)(C(=O)N[C@H](CO)c1ccccc1)C(=O)N[C@H](CO)c1ccccc1 | 20% | -2.9% | nt | -1%
CCOC(=O)CSc1nnc(CCc2nc3ccccc3[nH]2)n1C | -20% | -4.6% | 3 | -3%
CCCn1c(=O)c(C(=O)Nc2cccc(C)c2)c(O)c2ccccc21 | 34% | ? | nt | -15%
Cc1ccc(CNC(=O)CSc2nc3ccccc3c(=O)n2CC2CCCO2)cc1 (centres undefined) | 26% | -0.3% | nt | nt
CCCOC(=O)C1=C(C)N(C)C(=O)NC1c1cc2c(cc1Br)OCO2 (centres undefined) | -17% | -0.5% | nt | 6%
CCCCN1C(=S)SC(C)(C)C1/[N+]([O-])=C/c1cccnc1 (centres undefined) | -7% | 5.0% | 11 | -2%
CS(=O)(=O)Cc1ccc(C(=O)NC(c2ccccc2)c2ccccc2)cc1 | 2% | -1.9% | nt | 4%
CC(C)OC(=O)CC12CN3CC(CC(=O)OC(C)C)(CN(C1)C(=O)c1ccccc1C3=O)C2=O | -11% | 0.7% | 6 | -2%
CCCCc1cc(C(=O)Cc2ccccn2)c(O)cc1O | 2% | ? | nt | -7%
O=C(NCc1ccc(Cl)cc1)C1CCN(S(=O)(=O)N2CCOCC2)CC1 | 6% | -1.7% | 1 | 1%
CN(C)/C=C(\C=O)c1cccc(Cl)c1 | 2% | -4.4% | 7 | 2%
CC(C)CN(CCCNC(=O)CN1C(=O)COc2ccc(S(=O)(=O)N3CCCCCC3)cc21)CC(C)C | 4% | -0.6% | nt | -5%&-6%
CCOC(=O)c1c(S(=O)(=O)NCCc2ccc(OC)c(OC)c2)c(C)n(C)c1C | 7% | 0.3% | nt | -19%
CN1C(=O)c2ccc(Oc3ccccc3)cc2C1=O | 1% | 9.9% | nt | nt
CCOc1cc(C=O)cc(N=Nc2cccc([N+](=O)[O-])c2)c1O | 8% | -2.8% | nt | -4%
O=C(Nc1ccc(Cl)c(S(=O)(=O)N2CCOCC2)c1)c1ccc2c(c1)OCCO2 | -24% | -1.1% | -9 | 24%
CCSc1nnc(-c2ccc(S(=O)(=O)NCc3cccs3)cc2)o1 | 4% | -0.2% | -1 | -3%
COC1OCC(O)C(OC(=O)c2ccccc2)C1OC(=O)c1ccccc1 (centres undefined) | 8% | 1.5% | nt | nt
CCC(C)(C)n1nnnc1C(c1ccc(OC)c(OC)c1)N1CCN(c2ccc(OC)cc2)CC1 (centres undefined) | -18% | 0.9% | 1 | -2%
CCCn1c(CCC(=O)Nc2ccccc2Cc2ccccc2)nc2cc(S(=O)(=O)N3CCOCC3)ccc21 | -12% | ? | -18 | 10%
CCCC(=O)Nc1ccc2nc(SCC(=O)Nc3ccc(N4CCOCC4)c(Cl)c3)sc2c1 | ? | ? | -11 | 18%
O=C(CN1C(=O)NC2(CCc3ccccc32)C1=O)NCc1ccc(Cl)cc1 (centres undefined) | 26% | -1.1% | nt | nt
COc1ccccc1CNC(=O)COC(=O)Cc1ccc(Br)cc1 | 7% | 0.4% | nt | nt
C/C(=C\c1ccccc1)C(=O)Nc1ccc(S(=O)(=O)Nc2ncccn2)cc1 | 8% | 4.2% | -7 | 0%
CC(C)OC(=O)c1cc(-c2ccc(C=O)o2)ccc1Cl | -4% | -1.4% | 22 | -27%
C/C(=C1\SC(N2CCOCC2)=NC1=O)c1ccc(C)cc1 | -6% | 3.3% | -4 | -6%
CCc1c(C)nc(SCC(=O)N2CCCCC2CC)[nH]c1=O (centres undefined) | 42% | -0.4% | 8 | 10%
COc1ccc(CNC(=O)c2ccc(CS(=O)(=O)c3ccc(Br)cc3)o2)cc1 | -17% | 2.0% | nt | 5%&5%
CCc1[nH]nc2c1C1(CCOC1C)C(C#N)=C(N)O2 (centres undefined) | 10% | 0.1% | 4 | 2%
CCOc1ccc(OCC)c(NC(=O)C2CCCN(C(=O)c3ccc(Cl)cc3)C2)c1 (centres undefined) | -19% | -0.4% | nt | nt
Cc1ccc(NC(=O)CCc2nnc3ccc(N4CCOCC4)nn23)cc1C | 13% | 0.6% | nt | -4%
O=C(CCN1CCc2ccccc2C(c2ccccc2)C1)c1ccc2c(c1)OCCO2 (centres undefined) | 26% | -3.2% | 1 | 9%
CC(C)CCN1C(=O)CC(NNC(=O)c2ccc(S(=O)(=O)N3CCCC3)cc2)C1=O (centres undefined) | 7% | 1.2% | -25 | -1%
Cc1ccc(C(=O)C(OC(=O)c2c(C)cc(=O)oc2C)c2ccccc2)cc1 (centres undefined) | 13% | ? | -8 | -2%
CN(Cc1ccccc1)C(=O)c1ccc(NC(=O)Cc2ccc(NC(=O)C3CCCN(C(=O)CCc4ccccc4)C3)cc2)cc1 (centres undefined) | 0% | 3.6% | nt | nt

A portion from the list above, for reference:
SMILES | Rango dissoc inh | Rango complex inh | GLA inh pH 4.5 | miR-21 FLuc
Cc1ccc(C(=O)C(OC(=O)c2c(C)cc(=O)oc2C)c2ccccc2)cc1 (centres undefined) | 13% | ? | -8 | -2%
CN(Cc1ccccc1)C(=O)c1ccc(NC(=O)Cc2ccc(NC(=O)C3CCCN(C(=O)CCc4ccccc4)C3)cc2)cc1 (centres undefined) | 0% | 3.6% | nt | nt

Three compounds already listed, sorted by their value in GLA inh pH 4.5, low to high.
SMILES | Rango dissoc inh | Rango complex inh | GLA inh pH 4.5 | miR-21 FLuc
CCc1[nH]nc2c1C1(CCOC1C)C(C#N)=C(N)O2 (centres undefined) | 10% | 0.1% | 4 | 2%
COc1ccccc1OCCCOc1c(Cl)cc(C)cc1Cl | 6% | -0.1% | 11 | -24%
CC(C)OC(=O)c1cc(-c2ccc(C=O)o2)ccc1Cl | -4% | -1.4% | 22 | -27%

Remaining list, next part
SMILES | Rango dissoc inh | Rango complex inh | GLA inh pH 4.5 | miR-21 FLuc
c1ccc2c(c1)CCN(c1nc(CN3CCOCC3)nc3sc4c(c13)CCCC4)C2 | -6% | -0.2% | -6 | 1%
O=C(/C=C/c1cccc([N+](=O)[O-])c1)NCCN1C(=O)S/C(=C\c2cccnc2)C1=O | -10% | -2.1% | -4 | -2%
COc1ccc(C)cc1NC(=O)CC(O)(C(F)(F)F)C(F)(F)F | 1% | -1.2% | 1 | -2%
CC1CCN(CC(=O)N2CC(=O)Nc3ccccc32)CC1 | 2% | -0.6% | 0 | -15%
CC(C(N)=O)N1C(=O)NC2(CCCc3ccccc32)C1=O (centres undefined) | -4% | -0.2% | nt | 5%
CCCc1nc(SCc2ccc(Cl)cc2Cl)n[nH]1 | 10% | 4.4% | 4 | -29%
Cc1cccc(N(C)c2ncnc3onc(-c4ccc(F)cc4)c23)c1C | 23% | -1.5% | nt | 9%
CCN(C(=O)CCS(=O)(=O)c1cccc2nonc12)c1ccc(F)cc1 | 0% | -0.9% | nt | -8%
Cc1cc(N2CCCC2)ccc1/C=N/n1cnnc1 | ? | ? | -3 | -22%
CC(C)n1c(Sc2nccn2C)nc2c1c(=O)n(C)c(=O)n2C | 6% | 5.1% | 2 | -9%
CCOC(=O)c1c(NC(=O)Cc2cccs2)sc(C(=O)N2CCCCC2)c1C | 14% | -0.7% | 1 | -11%
O=C(Nc1ccc(F)cc1)c1nc[nH]c1C(=O)Nc1ccccc1[N+](=O)[O-] | -2% | -0.4% | 1 | -2%
O=c1oc(Nc2ccccc2F)nc2ccccc12 | 2% | 0.1% | -1 | -40%
NC(=O)c1ncn([C@@H]2O[C@H](CNCc3cccc(OC4CCCC4)c3)[C@@H](O)[C@H]2O)n1 | -8% | -1.2% | nt | nt
COc1ccc(CCNc2nc(=O)[nH]nc2C)cc1OC | -17% | -8.2% | -6 | -5%
CCC(Sc1nc2sc(C(=O)OC)c(C)c2c(=O)n1N)C(=O)N(CC)CC (centres undefined) | -6% | -0.1% | -4 | 0%
COc1ccc([N+](=O)[O-])cc1NC(=O)COC(=O)c1ccccc1O | 1% | -0.1% | -5 | 0%
Cc1cc(-c2ccco2)c(C#N)c2nc3ccccc3n12 | ? | ? | -19 | -24%
O=C(CSc1nc2[nH]ncc2c(=O)n1-c1ccccc1)NCCc1ccccc1 | 4% | -4.1% | 11 | 0%
Cc1ccc(C(=O)NNC(=O)c2ccccc2O)cc1S(=O)(=O)N1CCCCC1 | -8% | -0.4% | nt | nt
O=C(O)c1cc(CN2CCOCC2)oc1-c1ccccc1 | -9% | 7.0% | 0 | -5%
COC(=O)c1cc2sc(Cl)cc2n1CC(=O)NCCC(C)C | 3% | 0.2% | 8 | -3%
Cc1ccc(C)c(NC(=O)C(CC(=O)O)Cc2ccccc2)c1 (centres undefined) | 2% | 2.8% | nt | -3%
Cc1cc(C)n(CC(=O)N/N=C/c2cccs2)n1 | -1% | -4.9% | 2 | -25%
O=S(=O)(c1ccc(Br)cc1Cl)N1CCN(CCO)CC1 | 2% | 0.8% | 2 | -1%
CCOC(=O)C1(CCOc2ccccc2)CCN(Cc2ccc(OCCO)cc2)CC1 | -4% | 2.4% | nt | 10%
CCC(CC)NC(=O)Cn1c(C(C)NC(C)=O)nc2ccccc21 (centres undefined) | 5% | -1.2% | 4 | -1%
O=C(NC1CCCC1)c1ccc(CNc2c(N3CCOCC3)c(=O)c2=O)cc1 | 1% | -0.6% | -3 | 3%
O=C(NC1CCCC1)c1cc(-c2ccccc2Cl)on1 | -15% | 1.3% | nt | -70%
COc1cccc(CNC(=O)CCC2CCCN(C(=O)c3ccoc3)C2)c1 (centres undefined) | 35% | -1.1% | 5 | -5%
Cc1ccn(CCC(=O)N2CCc3ccccc32)n1 | 4% | -0.9% | nt | -19%
O=C(NC1CC1)c1cccc(NC(=O)C2CCN(S(=O)(=O)c3cccc(C(F)(F)F)c3)CC2)c1 | -9% | 8.7% | nt | nt
O=c1c2ccsc2ncn1Cc1cccc(C(F)(F)F)c1 | -12% | 1.1% | 4 | -7%
COc1ccc(-c2csc(/C(C#N)=C/Nc3cc4oc5ccccc5c4cc3OC)n2)cc1 | -4% | -4.5% | 5 | 0%
C#CCOCCOCCOCCNc1nc(N2CCN(C(=O)CCCCCCCCCCNC(=O)[C@H](CCCCN)n3cc(C)nn3)CC2)nc(N2CCN(C(=O)CCCCCCCCCCNC(=O)[C@H](CCCN=C(N)N)n3cc(C[C@@H](C)CC)nn3)CC2)n1 | ? | 16% | nt | nt
COc1ccc(C(=O)O)cc1S(=O)(=O)Nc1cccc(C(F)(F)F)c1 | -1% | 1.7% | -5 | -1%
O=C(COC(=O)CSc1ccc([N+](=O)[O-])cc1)NCc1ccco1 | 12% | 0.7% | nt | nt
CCS(=O)(=O)NC(C)C(c1cccs1)N1CCN(c2ccc(F)cc2)CC1 (centres undefined) | 10% | 0.7% | 3 | 7%
Cc1ccc(-c2nc3ncccc3o2)cc1NC(=O)c1ccc([N+](=O)[O-])o1 | 1% | 2.7% | nt | 7%
COC(=O)c1sc2nc3c(c(-c4cccs4)c2c1N)CCCC3 | ? | ? | 3 | -5%
Nc1ccn([C@H]2CC[C@@H](CO)O2)c(=O)n1 | -1% | -1.4% | 2&-8&-1&-3&2 | 4%&0%
COC(=O)CCn1nc(-c2ccc(C)cc2)c2ccccc2c1=O | ? | 1.3% | 2 | -8%
COC(=O)c1ccc(COc2nc(C)cc(C)c2C#N)o1 | 3% | 0.4% | 0 | -23%

These rows are one share of the data (hit frequency here may not be typical).
